# BasE inh = BasE siderophore enzyme inhibitors, primary screen, biochemical, Acinetobacter baumannii ATCC 17978, fluorescence polarization. 84,000 compounds, 0.1% hits. purified BasE, fluorescence polarization binding displacement. AID 485350, 2010. inhibition, % (no concentration beside the values);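 active means both replicates above 25% with normal brightness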;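 further: 0% = negative plate control signal and 100% = positive plate control signal; stock transfer was 100 nL into about 30 µL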
# KSHV LANA nucl = inhibitors of KSHV LANA-nucleosome binding, primary screen, biochemical, fluorescence polarization, FITC-LANA1-23, chicken nucleosomes. FITC-LANA1-23 / chicken nucleosome fluorescence polarization; stronger effect = lower value. z-score (concentration not given with the values). 51,000 compounds, 0.3% hits;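 active means both repeat wells score below -2 in polarization z-score versus plate sample wells, excluding overly bright wells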;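 further: 100 nL library stock added to about 30 µL; numbers are from one replicate; some results filed as inactive read as strong as hits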
#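 System – purified chicken nucleosomes with FITC-labelled LANA N-terminal peptide (1-23) · Amount – 240 nM purified chicken nucleosomes (480 nM peptide binding sites), final · Also added – 50 nM FITC-LANA1-23 probe · Medium – TEN-BT buffer, pH 7.5 · Incubation – compound with peptide–nucleosome mix 10–45 min at room temperature · Detection – fluorescence polarization, ex 480 nm, em 535 nm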
# Active calls of the source: *; x = no result given; & = joins results of further samples. The list is partial; rates above refer to the full screens.
SMILES,BasE inh,KSHV LANA nucl
O=C1CCCC(O)=C1N=Nc1ccc(C(=O)O)cc1,-0.7,x
COc1ccccc1OCCn1c(NC(=O)c2cccs2)nc2ccccc21,-0.1,0.94
CC(=O)NCCc1cc2cc(C)c(C)cc2[nH]c1=O,-1.9,0.068
O=C1C(=Nc2ccccc2)c2ccccc2N1Cc1ccccc1,0.6,x
Cc1cc(C)c(N=C=S)c(Cl)c1,3.2,x
O=C(CSc1nnc2ccccn12)Nc1ccccc1C(=O)O,3.7,x
Cc1n[nH]c(C)c1N1C(=O)c2cccc3c(N)ccc(c23)C1=O,9.2,x
O=C(CS(=O)(=O)c1ccccc1)N1CCN(Cc2ccc3c(c2)OCO3)CC1,0.6,-0.23
CC1=C/C(=N/NC(=O)Cn2cnc3ccccc32)CC(C)(C)C1,1.2,x
N=C1SC2CS(=O)(=O)CC2N1/N=C/c1ccccc1 (configuration not stated),1.1,x
COc1ccc2nc(SC(=O)c3ccccc3)nc(C)c2c1,1.8,x
Cc1nn(-c2ccccc2)nc1C(=O)c1c(C(C)(C)C)[nH]n(-c2ccccc2)c1=O,2.3,x
CCC(C)NC(=O)c1cc(-c2ccccc2)n[nH]1 (configuration not stated),-2.5,-1.4
O=C1CCC=CN1c1cn[nH]c1-c1ccc(Cl)cc1,x,-0.049
C=CCn1c(C)cc(C(=O)CSc2nnc(-c3cccs3)o2)c1C,1.8,x
Nc1ccc(-c2nc3cc(N)ccc3o2)cc1,1.1,0.93
COc1ccc2c(c1OC)C(=O)OC2Nc1ncn[nH]1 (configuration not stated),1.3,-0.31
CC1(C)CC(=O)C(N=Nc2ccc3c(c2)OCCO3)=C(O)C1,-6.5,x
Nc1nc(=S)c2ncn([C@@H]3O[C@H](CO)[C@@H](O)[C@H]3O)c2[nH]1,-0.7,0.32
COc1ccc(/C=C2\SC(=O)N(c3c(C)n(C)n(-c4ccccc4)c3=O)C2=O)cc1OC,1.2,x
CCc1ccc2c(C(F)(F)F)cc(=O)oc2c1,x,-0.21
CC(C)NC(=O)C1CCCN(c2nc3cccnc3s2)C1 (configuration not stated),2.5,-0.0025
COc1cc(/C=N/NC(=O)Cn2ncn(-c3ccccc3)c2=O)ccc1OC(=O)CC1SC(=O)NC1=O (configuration not stated),-0.3,x
COc1ccccc1C(=O)NC(C)(C)CO,x,0.25
CCOc1ccc(C(=O)Nc2ccc(S(=O)(=O)N(C)C)cc2)cc1OCC,-3.2,x
CN(Cc1ccccc1)Cn1[nH]c(-c2cccs2)nc1=S,0.8,x
COC(=O)COc1coc(CN2CCN(c3cccc(Cl)c3)CC2)cc1=O,0.4,0.79
C=CCNc1nnc(SCC(=O)N2N=CCC2c2ccccc2)s1 (configuration not stated),1.1,0.34
CCOc1cc(S(=O)(=O)NCc2ccc(OC)cc2)c(OCC)cc1-n1cnnn1,-4.7,2.1
COC(=O)c1cn(C)c2ccc(S(=O)(=O)N3CCOCC3)cc2c1=O,0.7,-0.65
CCN(CC)S(=O)(=O)c1ccc(N2CC(C)OC(C)C2)nc1 (configuration not stated),-1.5,x
O=C(/N=C1/SCCN1CC(=O)c1ccccc1)Nc1ccccc1,-0.1,0.12
O=C(CN1CCN(c2ccccn2)CC1)N1CCc2ccccc2C1,-0.5,x
CC(C)NC(=O)CSc1ccccc1C(=O)Nc1ccc(-n2cnnn2)cc1,0.4,x
NC(=S)N/N=C/c1c[nH]c2ccccc12,13,-0.64
COC(=O)Cn1c(C)cc(C)c(C#N)c1=O,0.0,-1.6
O=C(C(F)F)N1CCN(c2ccccc2)CC1,-0.9,-0.72
Clc1ccc2nc(CSc3ncccn3)cn2c1,-2.6,x
S=C(NCCc1ccccc1)c1ccccc1,-1.4,x
CCN1CCN(C(=O)c2nc(-c3cccnc3)no2)CC1,-2.9,1.8
Cc1c(CN2CC3(C)CC2CC(C)(C)C3)c(=O)n(-c2ccccc2)n1C (configuration not stated),-2.1,0.56
Cc1ccccc1NC(=S)Nc1cc(NS(C)(=O)=O)ccc1C,-0.9,x
Clc1cccc2c(N3CCN(Cc4ccccc4)CC3)cnnc12,-4.8,x
CC1(C)CN(c2ccc(CC#N)cc2)C1=O,x,-0.025
CCC(c1ccccc1)c1nnc(NC(=O)OC)s1 (configuration not stated),4.4,-0.5
CC1CCCCN1C(=O)c1cc2nc3c(c(C(F)(F)F)n2n1)CCc1ccccc1-3 (configuration not stated),1.7,-0.26
Cc1cc(C)cc(NC(=O)NC(C)C2CCCO2)c1 (configuration not stated),-1.1,1.3
NC(=O)Cn1c(=O)n(CCc2nc(-c3ccccc3)no2)c(=O)c2ccccc21,-4.8,x
O=S(=O)(Nc1ccc(-c2nc3ccccc3o2)cc1)c1ccccc1,-4.4,1.4
Cc1c(C(=O)OCC#N)oc2ccc(Br)cc12,-2.2,x
CN(C(=O)COC(=O)c1cccnc1Nc1cccc(C(F)(F)F)c1)C1CCS(=O)(=O)C1 (configuration not stated),0.4,x
Cc1ccc(S(=O)(=O)c2nc(N3CCCC(C)C3)sc2Cl)cc1 (configuration not stated),3.5,x
Cn1[nH]c(=O)c2cc(Cl)c(Cl)cc2c1=O,-1.3,1.2
COc1cc(-c2nc3sc4c(c3c(=O)[nH]2)CCCC4)ccc1OCc1cc(=O)n2nc(C)sc2n1,-3.5,1.8
CC(C)(C)C1CCc2nc(NC(=O)CC#N)sc2C1 (configuration not stated),1.2,x
O=C(CC1(C(=O)O)CCCC1)N1CCOCC1,1.3,x
Cc1cc(C)cc(N2C(=O)CC(N(C(=O)c3ccco3)c3cc(C)cc(C)c3)C2=O)c1 (configuration not stated),1.9,-0.18
Cc1cc(NC(=O)Cn2nc3c(cc2=O)CCCC3)ccc1Br,-4.2,x
CCOC(=O)c1sc(S(C)=O)c2c1CCCC2=O (configuration not stated),3.3,-0.41
OC(CN1CCNCC1)Cn1c2ccccc2c2ccccc21 (configuration not stated),0.1,-0.16
# Additional records follow:
SMILES,BasE inh,KSHV LANA nucl
CC12CCC3C(C1)C(C(=O)O2)C(=O)OC3(C)C (configuration not stated),0.2,-0.14
CCN1CCN(c2cc3c(cc2F)c(=O)c(C(=O)O)cn3C2CC2)CC1,x,-0.29&0.94&0.18
CN(C)S(=O)(=O)c1ccc(C(=O)N2C(=O)c3cccc(N)c3C2=O)cc1,1.6,x
COc1ccc(Cn2[nH]nnc2=S)cc1,0.6,-0.33
CC(C)CN1C(=O)C(O)(c2nnc(-c3ccccc3)o2)c2ccccc21 (configuration not stated),-6.7,x
O=S(=O)(c1cccc(NC(=S)N2CCN(c3ccc(F)cc3)CC2)c1)C(F)F,-0.3,0.25
CCOc1ccc(NC(=O)C2CC(=O)C(C(=O)OC)=C3C(=O)NCCN32)cc1 (configuration not stated),-1.0,-0.062
CC1(C)CC2CC(C)(CN2C(=O)COC(=O)c2ccc(O)cc2)C1 (configuration not stated),0.1,x
CCOC(=O)N1CCN(CC(=O)c2ccc3c(c2)CCN3C(C)=O)CC1,2.5,0.61
NC(c1ccccc1)c1ccccc1,-1.8,x
CC(=O)Nc1ccc(/C=c2\sc3nc4ccccc4n3c2=O)cc1,3.8,1.1
O=C(COc1ccc(Br)cc1)NCC1CCCO1 (configuration not stated),0.6,x
O=C(CSc1n[nH]c(=O)[nH]c1=O)Nc1ccc(Br)cc1Br,-0.7,x
C1=CCC(CN2CCNCC2)CC1 (configuration not stated),-0.1,-1.5
O=C(CSc1nc2c(c(=O)n1-c1ccc(F)cc1)SCC2)Nc1ccc(F)cc1,0.4,-0.17
O=C(CSc1ncnc2c1oc1ccccc12)c1cc2c3c(c1)CC(=O)N3CCC2,-1.2,x
Cc1ccc(NC(=O)COC(=O)c2ccc3c(=O)[nH]c(CN4CCOCC4)nc3c2)cc1C,-0.2,x
CCOC(=O)c1ccc(N=C=S)cc1,-0.8,x
C=CCn1c(NCc2ccccc2C)nc2ccccc21,-1.0,-0.72
COc1ccc(CC(=O)Nc2cccc(-c3nc4cc5ccccc5cc4[nH]3)c2)cc1,2.0,x
Cc1ccc(-n2c3c(cc(C(=O)NCc4ccco4)c2=O)C(=O)CCC3)cc1,-1.5,-0.51
CN(C)c1ccc(/C=N/NC(=O)C2SCCCS2)cc1,0.1,x
Cc1cc(C)c2oc(-c3cc(N)cc(C)c3O)nc2c1,-0.5,0.007
CCC(=O)Nc1ccc(C(=O)Cn2c(=O)oc3ccccc32)cc1,-0.1,x
CCOC(=O)c1c(C)n(C2CCCCC2)c2ccc(OCC(N)=O)cc12,-2.7,0.34
O=CN1CCN(C(=O)c2ccc(F)cc2)CC1,2.9,-1.2
C=CCNc1nnc(Cl)c2ccccc12,1.0,-0.69
O=C(CSc1nc2c(oc3ccccc32)c(=O)n1-c1ccccc1)Nc1ccccc1,0.0,0.49
C/C=C\C(=O)Nc1cc(-c2cn3cccnc3n2)ccc1C,4.5,0.46
Cc1ccc(Oc2ccccc2/C=C/C(=O)O)cc1,x,-0.15

# Given field by field: entries from further up.
> O=C(CSc1ncnc2c1oc1ccccc12)c1cc2c3c(c1)CC(=O)N3CCC2
  BasE inh = -1.2
  KSHV LANA nucl = x
> CCOC(=O)c1ccc(N=C=S)cc1
  BasE inh = -0.8
  KSHV LANA nucl = x
> O=CN1CCN(C(=O)c2ccc(F)cc2)CC1
  BasE inh = 2.9
  KSHV LANA nucl = -1.2
> CN(C)c1ccc(/C=N/NC(=O)C2SCCCS2)cc1
  BasE inh = 0.1
  KSHV LANA nucl = x

# The list continues.
SMILES,BasE inh,KSHV LANA nucl
CN(C)c1ccc(C(=O)OCC(=O)N(C2CCCCC2)C2CCCCC2)cc1,1.3,x
CN1C(=O)/C(=C/c2cn(CC(=O)N3CCOCC3)c3ccccc23)c2ccccc21,3.3,x
COc1ccc(S(=O)(=O)NCc2cccn2Cc2ccc(Cl)cc2)cc1,-2.4,-0.013
CCN(CC)C(=O)C1CCCN(Cc2cc(Br)c(O)c(OC)c2)C1 (configuration not stated),1.9,-0.26
NS(=O)(=O)c1ccc(Nc2nncc(=O)[nH]2)cc1,0.7,-1.6
O=S(=O)(/C=C/c1ccccc1)Nc1cc(Cl)ccc1-n1cncn1,1.6,x
CCCCCC(=O)N1CCN(CCn2c(C)c3c(=O)n(-c4nc5ccccc5s4)[nH]c3cc2=O)CC1,3.1,0.28
CN1/C(=C/C2CC(=O)NC2=O)C(C)(C)c2ccccc21 (configuration not stated),-2.2,0.092
CC1CCc2cc(F)ccc2N1C(=O)CCN1C(=O)c2ccccc2S1(=O)=O (configuration not stated),-0.4,0.33
CCn1cc(C(=O)OCC(=O)NCc2ccco2)c(=O)c2ccc(C)nc21,2.4,x
Cc1ccccc1N1C=NC(=O)/C1=C\c1cccs1,-2.7,2.2
CC1CC(NS(=O)(=O)c2cccs2)CC(C)(C)C1 (configuration not stated),-1.1,-0.27
CCNC(=S)Nc1ccc(C)cc1,1.8,-0.59
CC(C)(C)NC(=S)NCc1ccc2c(c1)OCO2,0.0,x
CCNC(=O)NC1(C(=O)N2CCC(Cc3ccccc3)CC2)CCCCC1,-0.6,0.58

# Profiles as entered above. Values in the order: BasE inh	KSHV LANA nucl
# Record of CN1/C(=C/C2CC(=O)NC2=O)C(C)(C)c2ccccc21 (configuration not stated) = -2.2	0.092
# Record of CCNC(=O)NC1(C(=O)N2CCC(Cc3ccccc3)CC2)CCCCC1 = -0.6	0.58
# Record of NS(=O)(=O)c1ccc(Nc2nncc(=O)[nH]2)cc1 = 0.7	-1.6
# Record of CCNC(=S)Nc1ccc(C)cc1 = 1.8	-0.59
# Record of CN(C)c1ccc(C(=O)OCC(=O)N(C2CCCCC2)C2CCCCC2)cc1 = 1.3	x

# (listing goes on)
SMILES,BasE inh,KSHV LANA nucl
CCN(CC)C(=O)c1cc2sccc2n1Cc1ccc(F)cc1,0.4,0.72
CCC(=O)NCC(c1ccco1)N1CCc2ccccc21 (configuration not stated),0.7,-0.44
CN(C)CCC(c1ccc(Br)cc1)c1ccccn1 (configuration not stated),-3.3&1.0,1.1&-0.06&-0.4
O=C(CN(Cc1ccco1)C(=O)/C=C/c1ccco1)Nc1ccccc1Br,4.0,x
CCc1ccc(/C(N)=N/O)cc1,0.6,x
CCOC(=O)N1CCN(C(=O)c2cn(-c3ccc(OCC)cc3)c(=O)c3cc(OC)c(OC)cc23)CC1,1.2,-0.48
Oc1c(CN2CCN(c3ncccn3)CC2)cc(Cl)c2ccccc12,-0.8,x
CCC(=O)OCn1nnc2ccccc2c1=O,0.6,-0.018
CN(C1CC2C=CC1C2)S(=O)(=O)c1cc(C(F)(F)F)cc(C(F)(F)F)c1 (configuration not stated),1.3,x
CCn1c(SC)nnc1C1CCCN(C2CCC(C)CC2)C1 (configuration not stated),-2.4,-0.48
C/C(=N\OCC(=O)Nc1cc(C)on1)c1cccs1,0.5,x
O=c1oc2ccccc2cc1-c1nc(-c2cccnc2)no1,1.3,1.7
COc1cc(/C=C/C(=O)NC2CCCCC2)cc(S(=O)(=O)NCc2ccco2)c1OC,-1.4,x
Cc1sc2nc(C(C)Sc3nnc(CN4CCCC4)n3Cc3ccccc3)[nH]c(=O)c2c1C (configuration not stated),-2.0,x
Cc1ccc(-c2csc3nc(CN(C)C4CCN(C)CC4)[nH]c(=O)c23)cc1,-1.6,x

# Assay outcomes: PubChem BioAssay, ICCB-Longwood Screening Facility, Harvard Medical School
